LANA-H2B inh: blocks KSHV LANA binding to histone H2A/H2B | Q9QR71 | cell-free LANA-H2A/H2B peptide, fluorescence polarization | inhibition, % (concentration not given with the values) | actives 0.6% (n = 320,000) | AID 2629; in the data active = inhibition mostly above about 10%, no sharp cut-off; inactive = mostly below about 6.7%;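 note: stock transfer was 7.5 nL into about 10 µL; 0% = median of vehicle wells and 100% = median of positive control wells; one replicate is shown; the record names a cut of 25% in any replicate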
Target sequence (Q9QR71 whole entry, looked up): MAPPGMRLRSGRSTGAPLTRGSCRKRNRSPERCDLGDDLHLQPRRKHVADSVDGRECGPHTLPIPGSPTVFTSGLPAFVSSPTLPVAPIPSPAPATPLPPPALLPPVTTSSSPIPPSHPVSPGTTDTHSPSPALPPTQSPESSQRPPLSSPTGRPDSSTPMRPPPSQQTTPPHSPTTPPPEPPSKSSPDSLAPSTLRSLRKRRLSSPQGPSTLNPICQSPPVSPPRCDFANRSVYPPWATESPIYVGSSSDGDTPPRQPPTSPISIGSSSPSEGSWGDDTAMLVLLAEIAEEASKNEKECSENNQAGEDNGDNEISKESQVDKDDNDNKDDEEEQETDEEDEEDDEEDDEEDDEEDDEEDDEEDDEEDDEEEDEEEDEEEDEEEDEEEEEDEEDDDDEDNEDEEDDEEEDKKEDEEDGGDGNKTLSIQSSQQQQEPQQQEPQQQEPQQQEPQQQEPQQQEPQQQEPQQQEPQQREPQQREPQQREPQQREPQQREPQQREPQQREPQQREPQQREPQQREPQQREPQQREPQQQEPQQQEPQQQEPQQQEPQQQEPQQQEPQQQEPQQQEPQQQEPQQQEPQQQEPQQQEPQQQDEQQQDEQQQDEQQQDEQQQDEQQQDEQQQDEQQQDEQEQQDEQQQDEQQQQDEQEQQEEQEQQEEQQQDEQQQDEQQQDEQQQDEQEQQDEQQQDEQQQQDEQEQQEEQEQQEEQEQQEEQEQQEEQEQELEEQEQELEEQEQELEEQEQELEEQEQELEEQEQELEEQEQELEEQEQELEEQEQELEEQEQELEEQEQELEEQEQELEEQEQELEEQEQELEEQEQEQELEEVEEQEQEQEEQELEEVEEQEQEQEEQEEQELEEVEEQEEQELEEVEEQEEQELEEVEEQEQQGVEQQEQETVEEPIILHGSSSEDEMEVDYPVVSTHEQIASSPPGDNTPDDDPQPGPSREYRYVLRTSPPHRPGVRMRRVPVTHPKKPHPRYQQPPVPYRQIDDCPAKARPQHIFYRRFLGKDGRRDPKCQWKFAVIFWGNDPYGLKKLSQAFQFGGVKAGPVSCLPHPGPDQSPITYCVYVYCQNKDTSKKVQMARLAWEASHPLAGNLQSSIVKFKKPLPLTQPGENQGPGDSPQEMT
Beta apoptosis: beta cell apoptosis inhibition; INS-1E cytokine-induced death, ATP luminescence, 48 h; percent of positive-control rescue, neutral wells zero; protection from apoptosis, % (no concentration beside the values); actives 0.8% (n = 300,000); AID 435005;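 active = all replicates at 75% or more, or half of them and the mean; inconclusive = half reach 75% but not the mean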;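 note: 0% = cytokine-treated negative control wells and 100% = positive control rescue; higher means more ATP so stronger rescue from cytokine killing; wells of about 40 µL received 100 nL stock; the first replicate is given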
A1 inh: inhibitors of the anti-apoptotic protein A1, read as caspase activation; MEF A1-2A-BIM cells, Caspase-Glo 3/7 luminescence, 3 h; percent of clofoctol response, vehicle zero; caspase activation, % (test concentration not listed); actives 0.066% (n = 330,000);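 active = over half of replicate activation scores above 10%, or exactly half above 10 with the replicate mean above 10; inconclusive = replicate mean below 10 yet half the replicates above 10; inactive = over half of replicates below 10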;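 note: wells of about 30 µL received 50 nL stock; many hits fall short of the cut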
T cruzi inh: T. cruzi replication inhibition | T. cruzi beta-gal in NIH3T3, luminescence, 90 h | inhibition, % (test concentration not listed) | actives 1.4% (n = 300,000);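 active = mean inhibition across valid replicates above about 55%, limit read from the data; inconclusive = mean below that limit but half or more replicates reach it; inactive = mean below it, under half of replicates reach it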;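 note: signal also drops with host cell toxicity which is not excluded here; 0% = plate median of DMSO wells and 100% = zero luminescence signal; higher percent means less beta-gal luminescence so fewer parasites; stock transfer was 50 nL into about 50 µL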
Calb FLC: C. albicans growth modulation with fluconazole; C. albicans CaCi-2 (fluconazole-resistant clinical isolate) + fluconazole, Alamar Blue growth, 48 h; growth inhibition, % (concentration not given with the values); actives 0.57% (n = 300,000);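 active = most replicates above 75%; inconclusive = exactly half above 75%; inactive = most below 75%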;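 note: all wells also contain fluconazole at 8 µg/ml as a sub-toxic cotreatment; 0% = median of DMSO wells and 100% = median of geldanamycin control wells; wells of about 8 µL received 7.5 nL stock; the first replicate is given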
UCH37 DUB inh: human UCH37 deubiquitinating enzyme inhibition; Q9Y5K5; purified proteasome/UCH37, Ub-AMC cleavage fluorescence; inhibition, % (test concentration not listed); actives 0.33% (n = 330,000);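 active = mean of two replicates above 20%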;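 note: 0% = compound-free wells with enzyme and 100% = wells lacking proteasome; stock transfer was 100 nL into about 20 µL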
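Schedule: 30 min plus 25 min, room temperature / Material: human UCH37 within purified proteasomes / Technique: AMC fluorescence intensity at 355/460 nm / Buffer or medium: pH 7.4 Tris-HCl (50 mM) with ovalbumin, ATP-MgCl2, DTT / Controls: wells without proteasome as full block, compound-free enzyme plus substrate as uninhibited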
RanGTP-Imp inh: inhibitors of RanGTP-importin-beta interaction, primary screen, biochemical, FRET, CFP-Ran, YFP-importin-beta, homogeneous | cell-free CFP-Ran/YFP-importin-beta FRET ratio | inhibition, % (no concentration beside the values) | actives 1.1% (n = 300,000) | AID 2216;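 active = most replicates above 15%; inconclusive = exactly half above 15%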;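 note: 0% = DMSO wells and 100% = Ran loaded with GDP instead of GTP; wells of about 40 µL received 100 nL stock; the first replicate is given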
B2AR ag: human beta-2 adrenergic receptor agonism by FAP. Am2.2-beta2AR cells, FAP receptor internalization, flow cytometry; reference of the scale not given here. response, % (test concentration not listed). actives 0.43% (n = 340,000). AID 504454;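 active = response above a set limit, near 3 SD of response in nonfluorescent compounds, cut at about 42% in these data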;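 note: stock transfer was 100 nL into about 11 µL; a reference agonist was the positive control; negative values mostly stem from fluorescent compounds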
Active calls of the source: *; ? = inconclusive; / = not tested or not shown.

SMILES	LANA-H2B inh	Beta apoptosis	A1 inh	T cruzi inh	Calb FLC	UCH37 DUB inh	RanGTP-Imp inh	B2AR ag
Cc1nnc(SCCc2ccccc2)[nH]c1=O	2.0	-7	0.5	0	-10	4.0	-1.1	-10
O=C(CS(=O)(=O)Cc1ccccc1)N1CCN(C(=O)c2ccco2)CC1	11	-7	-0.3	?	?	3.0	7.4	3
O=C1CCN(C(=O)Nc2cccc(Cl)c2)N1	0.4	-2	-0.8	-11	-9	5.4	2.5	-2
CCN(CC(=O)Nc1ccc2c(c1)OCCO2)C(=O)CC(NC(C)=O)c1ccccc1 (stereo not given)	-0.5	-3	-0.2	7	4	1.5	-2.4	-10
O=C(COc1cccc(C(F)(F)F)c1)Nc1ccc(S(=O)(=O)N2CCCC2)cc1	0.5	/	0.3	0	-8	1.0	/	1
C=CCOc1ccc(C2/C(=C(\O)c3ccc4c(c3)CC(C)O4)C(=O)C(=O)N2CCN2CCOCC2)cc1OCC (stereo not given)	1.6	-11	-0.4	-8	/	14	0.5	3
COc1cc(-c2cc(C(=O)Nc3cc(S(=O)(=O)N4CCOCC4)ccc3O)c3ccccc3n2)cc(OC)c1OC	-2.9	10	-0.4	/	/	-12	/	5
O=C(OCC(=O)N1CCc2ccccc21)c1ccccc1	-2.6	-6	-2.2	-1	-5	-2.3	-2.4	-1
CC(C)N1CCC(N2CCN(C3CCCC3)CC2CCO)CC1 (stereo not given)	0.0	-3	0.5	12	9	/	1.9	21
O=C(NNC1=Nc2ccccc2SC1)c1ccccc1F	-1.0	/	0.7	-17	0	2.0	-1.9	2
O=S(=O)(c1ccc(Cl)cc1)N1CCN(Cc2c[nH]c3ccccc23)CC1	-0.5	-5	0.8	-6	-34	5.2	-3.0	-5
CN(C)c1cccc(C(=O)n2cc(C(=O)c3cc(F)ccc3O)cn2)c1	-5.9	-4	1.3	-4	-7	-31	5.2	6
Cc1ccc(-n2nc3c(c2NC(=O)c2ccco2)CS(=O)(=O)C3)cc1	0.5	-4	-0.6	-16	5	6.0	5.5	1
CN(C)CC/C=C1\c2ccc(F)cc2Sc2cc(F)c(Cl)cc21	1.5	/	0.2	40	-17	9.9	-0.3	32
CCOC(=O)c1sc(C)c2c(=O)n(CCc3ccccc3)nnc12	0.3	-4	2.2	-7	5	3.8	1.8	0
O=C1CSc2ccc(S(=O)(=O)N3CCN(c4ccccc4)CC3)cc2N1	5.5	-2	-0.4	-3	-1	0.0	2.2	-4
COc1ccccc1N=Nc1c(C)[nH][nH]c1=O	3.1	-6	-0.1	6	-7	8.6	-3.7	8
O=C(Cc1ccc([N+](=O)[O-])cc1)Nc1cccnc1	1.8	81*	0.5	-5	-14	-0.8	3.9	14
COc1cccc(NC(=O)CN(C)C(=O)c2cc(-c3ccc(F)cc3)nc3ccccc23)c1	6.7	6	0.1	39	-4	0.0	-0.3	13
O=C(Nc1ccc2nc(-c3ccccc3)[nH]c2c1)c1cccs1	2.3	30	-0.5	11	19	-4.6	1.6	-7
CCOC(=O)C(NC(C)=O)C(=O)O (stereo not given)	2.3	-1	-0.3	-12	-1	-3.0	-1.1	13
O=C(CN1C(=O)NC2(CCCCCC2)C1=O)c1ccc(Cl)s1	-0.2	1	0.2	3	-8	2.1	?	-2
O=C(OCc1c(F)cccc1Cl)c1cc([N+](=O)[O-])ccc1N1CCOCC1	-2.4	-8	0.6	15	0	3.5	4.1	9
CN(C(=O)c1nn(C)c2c1CS(=O)(=O)c1ccccc1-2)c1cccc(Cl)c1	3.7	-4	1.0	-4	-1	2.3	4.2	-9
CSc1ccccc1NC(=O)CN(c1cc(C)cc(C)c1)S(C)(=O)=O	3.4	-5	0.8	11	12	1.1	1.5	-8
O=C(NCc1n[nH]c(=S)n1-c1cccc(C(F)(F)F)c1)c1ccc(S(=O)(=O)N2CCCCC2)cc1	-3.3	-6	-0.7	-8	3	-1.2	2.7	3
CCOc1ccccc1Nc1nc2ccc(C)cc2n2cnnc12	/	/	/	-8	4	-75	-1.8	-14
CCOC(=O)N1CCN(C(=O)C(NC(=O)C2CCC(C)CC2)C(C)C)CC1 (stereo not given)	2.9	-4	?	-9	?	2.3	4.3	6
O=C1C2CCCN2C(c2ccc(F)cc2)N1c1ccc(Cl)cc1 (stereo not given)	2.7	2	0.0	1	-5	0.5	5.1	-6
O=C(Nc1ccc2nsnc2c1)N1CCCCC1	0.7	1	-0.9	-1	-2	-50	-2.6	0
Cc1cc(NC(=O)c2cccc3c2C(=O)N(C2CCCCC2)C3)ccc1Br	-3.4	-3	0.5	-10	9	-4.0	2.4	1
CC(C)(C)[C@H]1C=C(C(=O)N2CCN(Cc3ccccc3)CC2)O[C@@H](OCc2ccc(CO)cc2)C1	-4.8	6	0.3	34	-6	6.2	?	6
O=C(CCNS(=O)(=O)c1cccc(Cl)c1)OCC(=O)N1CCN(C(=O)c2ccco2)CC1	-88	1	0.0	/	/	0.2	/	0
Cn1c(=O)n(Cc2ccc(F)cc2)c(=O)c2c1nc1n2CCCN1C1CCCCC1	0.2	11	-0.7	34	4	2.4	1.4	-1
Cc1ccc(NC(=O)Cn2cc(S(=O)(=O)c3ccccc3)c(=O)c3cc(F)ccc32)cc1	-0.2	-1	1.0	36	4	-2.4	?	8
Cc1ccc2nc(NC(=O)C3=NN(c4ccccc4)C(=O)CC3)sc2c1	8.2	-10	-0.7	-5	22	0.7	1.8	-2

In another format: entries from further up.
Results follow in this order: LANA-H2B inh | Beta apoptosis | A1 inh | T cruzi inh | Calb FLC | UCH37 DUB inh | RanGTP-Imp inh | B2AR ag
> COc1cc(-c2cc(C(=O)Nc3cc(S(=O)(=O)N4CCOCC4)ccc3O)c3ccccc3n2)cc(OC)c1OC
 : -2.9 | 10 | -0.4 | / | / | -12 | / | 5
> O=C(OCC(=O)N1CCc2ccccc21)c1ccccc1
 : -2.6 | -6 | -2.2 | -1 | -5 | -2.3 | -2.4 | -1

(continued)
SMILES	LANA-H2B inh	Beta apoptosis	A1 inh	T cruzi inh	Calb FLC	UCH37 DUB inh	RanGTP-Imp inh	B2AR ag
Cc1[nH]n(-c2ccccc2)c(=O)c1CCOC(=O)c1cccc(C(F)(F)F)c1	-1.8	8	-0.6	9	8	2.2	-1.2	0
Cc1cccc(NC(=O)c2ccc(F)c(S(=O)(=O)N3CCC4(CC3)OCCO4)c2)c1	-1.0	-4	-2.2	1	6	5.3	-0.6	8
CC1CN(C(=O)Cn2cc(S(=O)(=O)CC(=O)N(C)c3ccccc3)c3ccccc32)CC(C)O1 (stereo not given)	-1.1	-1	-0.1	1	-2	0.0	-1.2	-2
Cc1ccccc1SCC(=O)N/N=C/c1ccc(F)cc1	0.9	-10	0.7	-2	0	/	-2.2	-4
COCCN=c1scc(-c2ccccc2)n1/N=C/c1c[nH]c2ccccc12	-2.6	-7	0.1	-8	17	/	0.1	6
CC[C@@H](C)[C@H](CN[C@H](CNC)C(C)C)NC[C@@H](C)c1ccc(CC(C)C)cc1	-1.0	19	0.2	37	15	2.8	-1.1	27
CC(C)C(NC(=O)C1CCC(C(C)(C)C)CC1)C(=O)NCc1cccnc1 (stereo not given)	1.1	-3	-0.2	3	-8	1.0	2.2	-2
O=[N+]([O-])c1ccc(N2CCC(=NOCc3ccc(Cl)cc3)CC2)cc1	3.0	-4	0.9	27	-7	7.7	-0.2	10
CCOc1ccc(Cn2nnc(C(=O)Nc3cc(C)cc(C)c3)c2N)cc1	3.8	5	0.3	46	5	0.6	-2.4	-6
COc1cc2nc(=S)n3[nH]c(COc4ccccc4C)nc3c2cc1OC	-7.0	-3	-0.4	-44	-24	6.1	3.3	1
Cc1cccc(C(=O)NNC(=O)c2ccc(Cl)cc2)c1O	-3.9	1	-7.3	1	-4	2.4	-1.7	2
CC1=NN(c2nc3ccccc3[nH]2)C(=O)/C1=C/N(C)C	-1.6	113*	-9.9	/	-15	6.8	/	-14
Cc1cc(C)c(OCCNCc2ccccc2)c(C)c1	1.7	/	0.0	5	0	2.4	-6.0	13
O=c1oc2cc(O)ccc2c2oc3cc(O)ccc3c12	-4.1	/	-7.7	-6	-14	-98	?	15
Cc1ccc(NC(=O)c2ccccc2Br)cc1S(=O)(=O)N(C)C	-4.1	-2	0.0	4	2	1.1	-1.3	9
O=C(CCl)N=c1sccn1Cc1ccccc1Cl	2.8	-5	4.1	61*	-10	5.7	-4.4	25
O=C(CC1S/C(=N\S(=O)(=O)c2ccccc2)N(c2ccccc2)C1=O)Nc1ccc(F)cc1 (stereo not given)	-0.8	-10	0.9	-34	2	/	1.0	1
Cc1cccc(N2C(=O)C3C4C=CC(C5CC45)C3C2=O)n1 (stereo not given)	-6.1	-11	-0.3	-2	-2	1.9	0.0	6
CCCOc1ccc(Cc2c(O)nc(N)[nH]c2=O)cc1C	2.7	-7	0.3	10	-1	2.6	4.1	9
OCCCc1nc2ccccc2n1CCOc1ccccc1	-4.0	-2	0.6	-44	13	6.4	2.6	4
O=C(NCCCN1CCCC1=O)c1ccccc1OCc1ccc(Cl)cc1Cl	3.4	0	-1.9	/	/	0.4	/	5
CC(C)(C)c1nnc(NC(=O)C2CCN(C(=O)c3ccco3)CC2)s1	3.6	-4	-0.2	-6	-5	2.8	-4.1	-4
CCOC(=O)CCc1c(C)nc2cc(-c3ccccc3OC)[nH]n2c1=O	0.4	/	0.0	-5	5	-6.5	-1.1	-2
O=C1Nc2ccccc2/C1=C/c1ccnc2ccccc12	-2.1	12	-0.1	-3	5	4.8	-0.5	-11
Cc1ccccc1CC1(CO)CCCN(C(=O)c2cc(-c3ccccc3)no2)C1 (stereo not given)	-1.1	-4	0.4	33	1	4.0	-4.8	-8
CCOC(=O)c1oc2ccccc2c1NC(=O)c1ccc(S(=O)(=O)N(C)C)cc1	-1.7	5	-1.5	25	-1	-14	3.5	1
CCN(CC(=O)Nc1c(F)cccc1F)C(=O)CCC(=O)c1ccc(C)cc1	2.9	1	0.3	-12	-6	3.3	/	1
O=C(CNC(=O)c1[nH]cnc1C(=O)NC(c1ccccc1)c1ccccc1)OCc1ccccc1	2.4	-7	-0.7	1	15	0.9	5.3	6
c1ccc(-n2c(-c3ccncc3)nnc2-c2cccs2)cc1	-0.9	-3	0.5	-1	30	0.2	-0.4	1
CCCCC(=O)Nc1ccc(C(=O)NNC(=O)CCc2ccccc2)cc1	-1.7	3	0.1	6	-12	0.3	0.6	4
COC(=O)c1ccc(NC(=S)N2CCN(Cc3ccccc3Cl)CC2)cc1	3.3	-11	0.3	1	21	2.2	1.3	9
CN1CCN(C(=O)c2cnn(-c3ccccc3)c2NC(=O)c2ccc([N+](=O)[O-])cc2)CC1	11	3	0.3	-6	-20	-0.2	2.5	5
NC(=O)CC(NC(=O)c1cccc(Br)c1)c1ccc(N2CCCCCC2)c([N+](=O)[O-])c1 (stereo not given)	-8.7	-4	-0.3	-8	-13	-1.1	?	-10
COc1ccc(/C=C/C(=O)NC2CCS(=O)(=O)C2)cc1 (stereo not given)	0.4	-6	-0.1	14	-3	3.7	1.7	0
O=C(NCc1ccco1)c1cc(S(=O)(=O)N2CCOCC2)ccc1Br	2.3	5	0.9	2	8	-2.3	2.2	-5
COC(=O)CSc1nc(-c2ccccc2)nc2ccc(F)cc12	-2.4	-2	-0.2	21	-16	-4.4	5.2	5

Compound activity from PubChem.

Compounds were not picked by outcome; about 4.3% have a hit in one of these screens.
